BJeLR viability: BJeLR cell viability loss, primary screen, luminescence, CellTiterGlo ATP | viability loss activity score, % (concentration not given with the values) | AID 2275, 2010 | hit rate 0.64% among 30,000 | BJeLR fibroblasts viability, 48 h; HRASV12, hTERT and SV40 LT/ST transformed; in the data active = viability loss activity score above about 50%; about a fifth of its hits are not listed in these tables;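 also: higher score means fewer live cells and less ATP luminescence; stock transfer was 50 or 100 nL into about 30 µL; 0% = vehicle wells and 100% = a reference killing control; one replicate is shown; the record names a cut of 85%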
A1 inh: inducers of caspase activity in MEF A1-2A-BIM cells, primary screen, A1 inhibitor project, cell-based, CaspaseGlo luminescence | AID 2241, 2010 | caspase-Glo luminescence, 3 h; percent of clofoctol signal, DMSO as zero | caspase activation, % (concentration not given with the values) | hit rate 0.51% among 21,000;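 active = most replicate scores above 10, or exactly half above 10 with mean activity above 10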;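 also: effector caspase 3 and 7 activity cleaving a DEVD luciferin substrate; 50 nL library stock added to about 30 µL; numbers are from one replicate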
* hit, by the source's call; / = no result given. An excerpt; rates above refer to the full screens.

SMILES	BJeLR viability	A1 inh
COc1ccc(NC(=O)Nc2cccc3c2O[C@H](CN(C)Cc2ccncc2)[C@@H](C)CN([C@@H](C)CO)C3=O)cc1	-1.4	/
C[C@@H]1CN([C@@H](C)CO)C(=O)c2cccc(NC(=O)Nc3ccc(C(F)(F)F)cc3)c2O[C@@H]1CN(C)Cc1ccc(Oc2ccccc2)cc1	12.3	/
COc1ccc(S(=O)(=O)N(C)C[C@@H]2Oc3ccc(NS(=O)(=O)c4ccccc4)cc3C(=O)N([C@@H](C)CO)C[C@@H]2C)cc1	0.9	-0.2
C[C@@H]1CN([C@@H](C)CO)C(=O)c2cccc(NC(=O)c3cnccn3)c2O[C@H]1CN(C)CC1CC1	5.5	/
C[C@H](CO)N1C[C@H](C)[C@@H](CN(C)Cc2ccc(Oc3ccccc3)cc2)Oc2ccc(NC(=O)Nc3ccc4c(c3)OCO4)cc2C1=O	4.1	-0.4
CC(=O)c1c(O)cc(O)cc1CC(=O)O	-2.2	0.0
O=C(/C=C/c1ccccc1)NC(=S)Nc1ccc(C(F)(F)F)cc1	-1.2	1.3
COc1cc2oc(-c3ccccc3)cc(=O)c2c(OC)c1OC	7.2	-0.8
Cc1ccc(C2Nn3c(nnc3-c3ccccc3)SC2C(=O)NCC2CCCO2)cc1 (centres undefined)	-2.4	0.4
COc1ccc(C(=O)N2CCCC(C(=O)N3CCCCCC3)C2)cc1 (centres undefined)	-2.6	0.4
O=C(Nc1ccccc1Br)c1ccc2c(c1)N(Cc1ccc(F)cc1)C(=O)CS2=O (centres undefined)	-4.9	/
COC(=O)C1=CO[C@@H](C)[C@H]2CN3CCc4c([nH]c5ccccc45)[C@@H]3C[C@H]12	-2.6	0.4
C[C@H](CO)N1C[C@H](C)[C@@H](CN(C)Cc2ccc(C(F)(F)F)cc2)Oc2ccc(NC(=O)Cc3cn(C)c4ccccc34)cc2C1=O	0.9	0.2
Nc1nc(N)n(-c2ccccc2)c(=Nc2ccccc2)n1	-1.0	-0.3
COc1ccc(NC(=O)N(C)C[C@@H]2Oc3c(NC(=O)Nc4c(C)noc4C)cccc3C(=O)N([C@H](C)CO)C[C@@H]2C)cc1	4.8	/
CCOc1ccc2nc(SCC(=O)c3cccs3)sc2c1	3.9	-3.2
CCN(CC)C(=O)Sc1nc2ccccc2c(=O)n1CC1CC1	-1.4	-0.4
C[C@@H]1CN([C@@H](C)CO)C(=O)c2cc(NC(=O)Nc3ccc(F)cc3)ccc2O[C@H]1CN(C)Cc1ccc(Cl)c(Cl)c1	1.8	0.6
N#CCCN(/N=C/c1ccccc1)C1=NS(=O)(=O)c2ccccc21	1.5	-0.5
C[C@@H]1CN([C@H](C)CO)C(=O)c2cc(NC(=O)C3CC3)ccc2O[C@@H]1CN(C)C(=O)NC1CCCCC1	-0.2	-0.5
O=C(CCCOc1ccc(Cl)cc1Cl)Nc1ccc2c(c1)OCCO2	-6.3	0.4
O=c1ccc2cc3ccoc3cc2o1	1.9	-0.4
CCSc1sc(CC)cc1C1C(C(=O)Nc2cccnc2)=C(C)NC2=C1C(=O)CCC2 (centres undefined)	4.8	0.2
CCC(=O)N1c2ccc(S(=O)(=O)NCc3ccccc3)cc2CC1C (centres undefined)	2.7	/
C[C@@H]1CN([C@H](C)CO)C(=O)c2cc(NC(=O)Cc3cn(C)c4ccccc34)ccc2O[C@H]1CN(C)S(=O)(=O)c1cn(C)cn1	2.1	0.1
O=C(NC1CCCC1)C1CCN(S(=O)(=O)c2cccc3nonc23)CC1	-7.0	/
CCOC(=O)C1CCCN(C(=S)Nc2ccc(OCC)cc2)C1 (centres undefined)	-3.4	0.4
COc1ccc(NS(=O)(=O)c2cc(Br)cnc2N)cc1	9.6	0.3
COC(=O)Nc1c(Cl)nsc1S(=O)(=O)Cc1ccccc1	2.7	-0.1
CC(C)NC(=O)Nc1ccc2c(c1)C(=O)N([C@H](C)CO)C[C@@H](C)[C@@H](CN(C)Cc1ccc(Cl)c(Cl)c1)O2	-0.2	0.6
C[C@H](CO)N1C[C@H](C)[C@@H](CN(C)Cc2ccc(-c3ccccc3)cc2)Oc2ccc(NS(=O)(=O)c3cn(C)cn3)cc2C1=O	-2.4	0.3
O=C1CC(c2ccccc2)c2c(ccc3ccccc23)N1 (centres undefined)	13.3	1.8
COC(=O)C(c1ccccc1)C1(O)CC(C)N(C)CC1C (centres undefined)	6.9	0.2
C[C@H](CO)N1C[C@H](C)[C@@H](CN(C)Cc2ccc(Oc3ccccc3)cc2)Oc2ccc(NC(=O)Cc3cn(C)c4ccccc34)cc2C1=O	-5.9	0.4
Cc1cccc(N2CCN(C(=O)CCn3c(=S)[nH]c4cc5c(cc4c3=O)OCO5)CC2)c1C	6.3	-1.1
Cc1noc(C)c1NC(=O)N(C)C[C@@H]1Oc2c(NS(=O)(=O)c3cn(C)cn3)cccc2C(=O)N([C@H](C)CO)C[C@@H]1C	-3.3	/
O=C(c1cnc2c(c1)COc1ccccc1-2)c1cc(Cl)ccc1O	5.9	0.6
C=C[C@@]12COC(=O)C(=C)[C@@H]1[C@@H](O)[C@H](C(=C)C(=O)OC)[C@@H](O)C2	-8.7	-0.2
COc1ccc(S(=O)(=O)Nc2cccc3c2O[C@H](CN(C)C(=O)NC(C)C)[C@H](C)CN([C@H](C)CO)C3=O)cc1	-2.8	/
C[C@H]1CN([C@@H](C)CO)C(=O)c2cc(NC(=O)Nc3ccc4c(c3)OCO4)ccc2O[C@H]1CN(C)Cc1ccc2c(c1)OCO2	7.5	-0.2
C[C@@H]1CN([C@H](C)CO)C(=O)c2cc(N(C)C)ccc2O[C@@H]1CN(C)C(=O)Nc1ccccc1	-0.3	-0.7
O=C(CSCn1nnc2c(=O)[nH]c(Cc3ccc(F)cc3)nc21)Nc1ccc(F)cc1	0.0	-0.9
N#CC(C(=S)Nc1ccccc1)c1nc2ccccc2[nH]1 (centres undefined)	9.3	-0.2
CCc1ccc(NC(=O)CSc2nc3c(c(=O)n2CC)SC(C)C3)cc1 (centres undefined)	-7.9	/
Cn1cccc1/C=N/n1c(COc2ccccc2)n[nH]c1=S	1.9	0.1
C[C@H]1CN([C@@H](C)CO)C(=O)c2cc(NS(=O)(=O)c3cn(C)cn3)ccc2O[C@H]1CN(C)S(=O)(=O)c1ccc(Cl)cc1	2.2	-0.2
C[C@H]1CN([C@@H](C)CO)C(=O)c2cc(NC(=O)Cn3cnnn3)ccc2O[C@@H]1CN(C)C(=O)Nc1ccccc1	2.2	-1.0
CCn1c(C)c(CCC(=O)N2CCCC2)c(=O)n2nc(-c3ccccc3OC)cc12	-2.2	-0.9
C[C@H]1CN([C@@H](C)CO)C(=O)c2cc(NC(=O)Cn3cnnn3)ccc2O[C@@H]1CN(C)Cc1ccc(Cl)c(Cl)c1	-5.3	-0.7
CCOc1cc(CNC23CC4CC(CC(C4)C2)C3)ccc1OCc1cccs1	2.6	-0.6
NNC(=O)/C(=C\c1ccccc1)NC(=O)c1ccccc1	-5.1	-0.1
COc1ccc(S(=O)(=O)N(C)C[C@@H]2Oc3ccc(NC(=O)Cc4cn(C)c5ccccc45)cc3C(=O)N([C@H](C)CO)C[C@@H]2C)cc1	-0.2	0.9
O=C(Cn1c2ccccc2c2ccccc21)Sc1nc2ccccc2s1	-2.8	-0.1
CC(C)c1ccc(Nc2nc(N3CCCCC3)nc(N3CCCCC3)n2)cc1	-1.5	-0.2
CCC(=O)OCC(=O)[C@@]1(OC(=O)CC)[C@H](C)CC2C3C([C@@H](O)C[C@@]21C)[C@@]1(C)C=CC(=O)C=C1C[C@H]3Cl (some centres undefined)	-3.5	0.0
COC(=O)c1sc(=S)sc1C(=O)OC	-1.5	-0.8
CC1=C(C(=O)Nc2ccccc2)C(c2ccncc2)n2ncnc2N1 (centres undefined)	-2.9	-0.2
C=CCSc1nc2c(cc1C#N)CCC2	6.0	-0.6
C[C@@H]1CN([C@@H](C)CO)C(=O)c2cccc(NS(=O)(=O)c3cn(C)cn3)c2O[C@@H]1CN(C)Cc1ccc2c(c1)OCO2	-0.6	/
C[C@H]1CN([C@@H](C)CO)C(=O)c2cccc(NS(=O)(=O)c3ccc(F)cc3)c2O[C@H]1CN(C)Cc1ccc(Oc2ccccc2)cc1	-3.3	/

Some of the entries above, set out differently.
| Structure | BJeLR viability | A1 inh |
| --- | --- | --- |
| O=c1ccc2cc3ccoc3cc2o1 | 1.9 | -0.4 |
| CCSc1sc(CC)cc1C1C(C(=O)Nc2cccnc2)=C(C)NC2=C1C(=O)CCC2 (centres undefined) | 4.8 | 0.2 |
| CCC(=O)N1c2ccc(S(=O)(=O)NCc3ccccc3)cc2CC1C (centres undefined) | 2.7 | / |
| C[C@@H]1CN([C@H](C)CO)C(=O)c2cc(NC(=O)Cc3cn(C)c4ccccc34)ccc2O[C@H]1CN(C)S(=O)(=O)c1cn(C)cn1 | 2.1 | 0.1 |

New compounds follow
SMILES	BJeLR viability	A1 inh
C[C@@H]1CN([C@H](C)CO)C(=O)c2cccc(NC(=O)Nc3ccccc3)c2O[C@@H]1CN(C)C(=O)Nc1ccc(C(F)(F)F)cc1	10.4	/
COc1ccc(S(=O)(=O)N(C)C[C@H]2Oc3ccc(NS(=O)(=O)c4ccc(C)cc4)cc3C(=O)N([C@H](C)CO)C[C@@H]2C)cc1	7.7	-0.4
CCN(C(=O)CC(C)C)C1CCCCC1	2.6	0.2
CC(C)(C)c1cc(C(C)(C)C)n(-c2ccc(NC(=O)COCC(=O)O)cc2)n1	-7.1	-0.6
C[C@@H]1CN([C@H](C)CO)C(=O)c2cc(NC(=O)CCCCCC(=O)Nc3ccccc3N)ccc2O[C@H]1CN(C)C(=O)Nc1ccc(C(F)(F)F)cc1	-4.9	/
C[C@H](CO)N1C[C@H](C)[C@H](CN(C)S(=O)(=O)c2cn(C)cn2)Oc2ccc(NC(=O)C3CC3)cc2C1=O	2.0	-0.7
CC1CCCC2OC2C(=O)c2c(O)cc(O)cc2CC(=O)O1 (centres undefined)	-7.5	0.6
Cc1oc(C(C)(C)C)cc1C(=O)N1CCCC1C(=O)O (centres undefined)	-4.2	-0.9
COc1ccc(CC(=O)NC(=S)Nc2cccnc2Cl)cc1	-3.0	/
CC(=O)N1CN(C2CCS(=O)(=O)C2)Cc2c1sc1c2CCCC1 (centres undefined)	-0.5	-0.2
O=C(Nc1nc(=O)c2ccccc2s1)c1ccccc1	2.8	-5.4
CC(C)NC(=O)N(C)C[C@@H]1Oc2c(NC(=O)NC3CCCCC3)cccc2C(=O)N([C@H](C)CO)C[C@H]1C	-2.2	/
C[C@@H]1CN([C@H](C)CO)C(=O)c2cc(NS(=O)(=O)c3ccc(Cl)cc3)ccc2O[C@H]1CN(C)Cc1ccc(-c2ccccc2)cc1	-0.9	-0.1
CCOC(=O)c1c(C)nsc1Nc1cc(C)ccc1C	1.7	0.1
CCOC(=O)N1CCN(CC(O)COCc2ccc(Cl)cc2)CC1 (centres undefined)	7.1	0.0

Single entries from the results shown:
BJeLR viability result of `C[C@H](CO)N1C[C@H](C)[C@H](CN(C)S(=O)(=O)c2cn(C)cn2)Oc2ccc(NC(=O)C3CC3)cc2C1=O` stands at 2.0
A1 inh result of `CC(=O)N1CN(C2CCS(=O)(=O)C2)Cc2c1sc1c2CCCC1` (centres undefined) stands at -0.2

(listing goes on)
SMILES	BJeLR viability	A1 inh
COC(=O)c1ccccc1NC(=O)CCc1ccc(OC)cc1	-8.6	/
Cc1ccc(C(=O)NCCC2=CCCCC2)cc1	0.8	-5.8
C[C@H](CO)N1C[C@H](C)[C@H](CN(C)Cc2ccc(C(=O)O)cc2)Oc2c(NC(=O)Nc3ccc4c(c3)OCO4)cccc2C1=O	1.8	/
O=C(Nc1ccc(C23CC4CC(CC(C4)C2)C3)cc1)c1cccs1	-4.5	-2.3
O=C1c2cc(O)cc(O)c2C(=O)c2c(O)cc(CO)cc21	22.5	-4.1
C[C@@H]1CN([C@@H](C)CO)C(=O)c2cc(NC(=O)c3ccncc3)ccc2O[C@H]1CN(C)CC1CCCCC1	4.4	-0.6
CS(=O)(=O)N(CC(=O)NCc1ccco1)c1ccccc1Br	-1.8	-1.3
Cc1noc(C)c1S(=O)(=O)Nc1ccc2c(c1)C(=O)N([C@H](C)CO)C[C@@H](C)[C@H](CN(C)Cc1ccc(Cl)c(Cl)c1)O2	6.0	-0.7
CC(=O)Nc1ccc2oc(-c3ccc(C#N)cc3)cc(=O)c2c1	3.9	-1.5
Cc1ccc(S(=O)(=O)Nc2cccc3c2O[C@@H](CN(C)S(=O)(=O)c2ccccc2)[C@@H](C)CN([C@@H](C)CO)C3=O)cc1	4.0	/
O=C(Cn1nc(-c2ccccc2)ccc1=O)NCc1cccs1	-2.1	-0.4
CCN(CC)c1nc2ccccc2c(=O)s1	3.2	0.2
O=c1c(I)cn(Cc2ccccc2)c(=O)n1Cc1ccccc1	0.7	-0.5
C[C@@H]1CN([C@@H](C)CO)C(=O)c2cc(NC(=O)c3ccncc3)ccc2O[C@@H]1CN(C)Cc1ccc(Cl)c(Cl)c1	1.2	-0.3
Cc1ccc(-c2noc(C(C)c3ccc(CC(C)C)cc3)n2)cc1 (centres undefined)	-3.2	-1.0
CCc1c(C)c(C#N)c2[nH]c3ccccc3n2c1=O	101.1*	2.6

Screens (PubChem)
